Screening data deposited in PubChem by Broad Institute.
STK33 kinase inh – blocks human STK33 kinase activity; purified STK33, MBP phosphorylation, ADP-Glo luminescence; inhibition, % at 10 µM; hit rate 0.073% among 320,000; AID 2661;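 active means inhibition at or above 25%, using the most active replicate where run in duplicate; inactive means inhibition below 25%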
Target sequence (Q9BYT3 whole entry, looked up): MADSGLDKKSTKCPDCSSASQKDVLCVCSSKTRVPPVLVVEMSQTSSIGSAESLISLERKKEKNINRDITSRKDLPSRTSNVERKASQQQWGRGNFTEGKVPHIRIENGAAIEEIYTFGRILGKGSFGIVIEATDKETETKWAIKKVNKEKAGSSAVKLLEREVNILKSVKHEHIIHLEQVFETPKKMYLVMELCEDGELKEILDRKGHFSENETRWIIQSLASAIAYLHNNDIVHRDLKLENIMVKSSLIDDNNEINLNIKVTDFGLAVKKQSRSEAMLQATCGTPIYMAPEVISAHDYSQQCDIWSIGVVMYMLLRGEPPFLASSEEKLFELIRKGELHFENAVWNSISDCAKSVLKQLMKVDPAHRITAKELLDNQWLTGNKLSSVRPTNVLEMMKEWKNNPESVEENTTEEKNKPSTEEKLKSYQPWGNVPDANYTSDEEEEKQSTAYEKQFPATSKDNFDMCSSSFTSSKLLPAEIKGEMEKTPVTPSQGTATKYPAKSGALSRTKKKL
Starred values were filed as active, the others as inactive.

SMILES | STK33 kinase inh
C/C=C/c1ccc(OCCn2cncn2)c(OC)c1 | -1.6
COc1ccccc1CNC(=O)c1ccc(CNc2c(N3CCCC3)c(=O)c2=O)cc1 | 0.2
O=C1N(Cc2cccnc2)C[C@@H]2C[C@@H](c3cccc(Oc4ccccc4)c3)N3CCC[C@@]123 | 0.9
O=C(O)C1=C[C@@H](c2csc3ccccc23)C[C@@H](OCCCCO)O1 | -1.6
CCNC(=S)NNC(=O)Cc1ccccc1 | 4.6
CCN(CC)S(=O)(=O)c1cccc(NC(=O)C2CC(=O)N(c3ccc4c(c3)OCCO4)C2)c1 (stereo not given) | 0.3
CCCC(=O)N1CCN(c2ccc(NC(=O)c3sc4ccccc4c3Cl)cc2)CC1 | -0.6
CC(NC(=O)c1ccco1)C(=O)Nc1nccs1 (stereo not given) | -0.1

Next section.
SMILES | STK33 kinase inh
C#Cc1ccc([C@H]2C=C(C(=O)NC3CC3)O[C@@H](OCC)[C@@H]2CCCO)cc1 | -1.3
Cc1cc(N)n(-c2ccc(S(=O)(=O)c3ccc(C(C)C)cc3)cc2)n1 | 2.7
O=C(Nc1cc2c3c(c1)CC(=O)N3CCC2)c1ccc(Br)o1 | 6.3
Cc1ccc(NC(=O)c2cc(S(=O)(=O)N3CCCCC3)ccc2N2CCOCC2)cc1F | -1.3
CN(CCC#N)C(=O)COC(=O)c1ccc2c(=O)n3c(nc2c1)CCC3 | -0.9
O=C(CSc1ccc(Cl)cc1)Nc1ccc(N2CCN(C(=O)c3ccco3)CC2)cc1 | -0.4
Nn1c(SCC(=O)Nc2nccs2)nnc1C1CC1 | -1.7
O=C(Nc1cccc(C(=O)O)c1)/C(=C\c1ccc2c(c1)OCO2)NC(=O)c1ccccc1Cl | 0.0

Remaining list, next part:
SMILES | STK33 kinase inh
O=C(Cn1ncn2c(cc3ccccc32)c1=O)NCCCc1ccccc1 | -1.2
NS(=O)(=O)c1cc(C(=O)N2CCNC(=O)C2)ccc1Cl | -1.8
CCCCC(CC)CNC(=O)c1ccc2c(c1)OCO2 (stereo not given) | -0.6
CCCN(S(=O)(=O)c1ccc(OCC)cc1)S(=O)(=O)c1cccs1 | -0.3
N#Cc1ccccc1S(=O)(=O)c1ccccc1C(=O)Nc1ccccc1 | -1.5
Cn1c(=O)[nH]c(=O)c2c1nc(SCC(O)CO)n2Cc1ccccc1Cl (stereo not given) | -0.9
COc1cccc(CNC(=S)Nc2cc(C)ccc2C)c1 | 0.2
CCc1cc(=O)oc2cc(OCC(=O)NC3CC(C)(C)NC(C)(C)C3)ccc12 | 1.0

Continued.
SMILES | STK33 kinase inh
Cc1cc(N2CCN(c3ccccc3)CC2)nc2ccccc12 | -0.1
CCOc1ccccc1C(=O)Nc1cnn(Cc2ccc(F)cc2)c1 | 21.8
Cc1cccc2sc(N(CCCN(C)C)C(=O)c3ccc(C(=O)c4ccccc4)cc3)nc12 | 0.4
Cc1ccc2[nH]c(=O)c(CN(C(=O)c3cccs3)c3ccccc3)cc2c1 | -4.4
COCCNS(=O)(=O)c1ccc(-c2ccc(C)cc2)cc1 | -0.5
CCCn1c(SCC(=O)Nc2ccc(C(=O)Nc3ccccc3OC)cc2)n[nH]c1=O | -0.6
CCOc1ccc(Oc2ccccc2NC(=O)CN2C(=O)NC3(CCCC3)C2=O)cc1 | -0.8
C[C@H](NC(=O)c1nc[nH]c1C(=O)NC(c1ccccc1)c1ccccc1)C(=O)OC(C)(C)C | 0.6

As a working copy, some entries already given.
SMILES | STK33 kinase inh
C/C=C/c1ccc(OCCn2cncn2)c(OC)c1 | -1.6
COc1ccccc1CNC(=O)c1ccc(CNc2c(N3CCCC3)c(=O)c2=O)cc1 | 0.2
O=C1N(Cc2cccnc2)C[C@@H]2C[C@@H](c3cccc(Oc4ccccc4)c3)N3CCC[C@@]123 | 0.9
O=C(O)C1=C[C@@H](c2csc3ccccc23)C[C@@H](OCCCCO)O1 | -1.6
CCNC(=S)NNC(=O)Cc1ccccc1 | 4.6
CCN(CC)S(=O)(=O)c1cccc(NC(=O)C2CC(=O)N(c3ccc4c(c3)OCCO4)C2)c1 (stereo not given) | 0.3

Later entries:
SMILES | STK33 kinase inh
CN(C)CCOC(=O)NCC12CC3CC(CC(C3)C1)C2 | -1.7
O=C(Nc1ccnn1C1CCN(C2CCC2)CC1)c1ccccc1Cl | 0.6
CC(C)n1c(NCc2ccc(Cl)cc2)nc2ccccc21 | 0.6
COC(OC)c1ccc(C#N)c(SCc2ccccc2)n1 | -2.1
CCCn1c(O)c(C=Nc2ccccc2)sc1=S | -1.2
Cc1ccc(Cl)c(OCC(=O)Nc2ccc(S(=O)(=O)NC3=NCCCCC3)cc2)c1 | -1.3
C/C(=N\N1CCN(Cc2ccccc2)CC1)c1ccco1 | 1.1
O=C(CSc1nnc(-c2ccc3c(c2)OCO3)n1-c1ccccc1)c1ccccc1 | -1.5

Carrying on:
SMILES | STK33 kinase inh
Cc1nnc(NC(=O)c2ccc(C)c(S(=O)(=O)N3CCCCCC3)c2)s1 | 12.4
CCCC(C)C(=O)NCc1ccccc1OC (stereo not given) | -0.3
CCOc1ncccc1C(=O)OCC(=O)Nc1ccc2c(c1)CCC2 | 5.3
CC(C)Cc1cc(C(=O)N2CCCC(C(=O)c3cc(F)ccc3F)C2)no1 (stereo not given) | -0.5
CCN(CC)S(=O)(=O)c1ccc2[nH]c(=O)cc(C(=O)NCC3CCCO3)c2c1 (stereo not given) | -0.3
COc1ccc(COc2cc(-c3cccc(OC)c3)nc3ccc(NC(=O)c4cccnc4)cc23)cc1 | -0.4
CCOc1ncccc1C(=O)NNC(=O)c1cccc(S(=O)(=O)N2CCOCC2)c1 | 2.2
COc1ccc([C@@H]2[C@@H]3C(=O)N(C(C)(C)C)C(=O)[C@@H]3[C@]3(C)C(=O)N(c4cccc(F)c4)C(=O)N23)cc1 | -0.6

Further entries:
SMILES | STK33 kinase inh
COc1cc2oc(=O)c3c(c2cc1OCC(=O)c1c(C)n(C)c2ccccc12)CCCC3 | -2.1
CCNC(=O)C1CC(=O)N(CC)C(=Nc2cc(Cl)c(O)c(Cl)c2)S1 (stereo not given) | -1.1
COC(=O)Cn1c(=NC(=O)c2cc(OC)c(OC)c(OC)c2)sc2cc(OC)ccc21 | -1.2
CC(C)Cc1nnc(NC(=O)CCC(=O)NC2CC2)s1 | -0.9
CCN(CC(=O)Nc1ccccc1OC)C(=O)c1cccc(-n2cccc2)c1 | -0.1
COc1cc(NC(=O)CSc2nc3ccccc3c(=O)n2C)ccc1NC(=O)c1ccco1 | -0.9
COc1ccc(CCNS(=O)(=O)c2ccc(Cl)s2)cc1OC | -0.5
O=C(Nc1ccc(Cl)cn1)Nc1ccc(Cl)cn1 | -0.9

4 of the entries above in order of the STK33 kinase inh value, low to high.
SMILES | STK33 kinase inh
COc1cc2oc(=O)c3c(c2cc1OCC(=O)c1c(C)n(C)c2ccccc12)CCCC3 | -2.1
Cn1c(=O)[nH]c(=O)c2c1nc(SCC(O)CO)n2Cc1ccccc1Cl (stereo not given) | -0.9
CCCn1c(SCC(=O)Nc2ccc(C(=O)Nc3ccccc3OC)cc2)n[nH]c1=O | -0.6
Cc1cc(N)n(-c2ccc(S(=O)(=O)c3ccc(C(C)C)cc3)cc2)n1 | 2.7

(next part)
SMILES | STK33 kinase inh
CCC1=C(OC(=O)c2ccccc2)C(C)(C)C(c2ccccc2)OC1=O (stereo not given) | -0.8
COc1ccc(-n2c(Cc3cccn3C)nnc2SCC(=O)Nc2cc(C)cc(C)c2)cc1 | -3.8
CCc1ccc(N2CC(C(=O)OC)CC2=O)cc1 (stereo not given) | -1.2
O=C(NCCc1cccc(Cl)c1)c1cccs1 | -1.7
O=C(CCCCCN1C(=O)c2ccccc2C1=O)NCc1ccco1 | -0.7
CCCCNC(=O)C1CCN(S(=O)(=O)c2cnc[nH]2)CC1 | 0.4
Cc1ccc(N2C(=O)Nc3cc(Cl)c(Cl)cc3N2O)cc1Cl | -1.6
CCN1CCN(CCC(=O)Nc2cc(C)ccc2C)CC1 | 0.1

Next section
SMILES | STK33 kinase inh
CN(C)S(=O)(=O)c1cc(NC(=O)COC(=O)C2COc3ccccc3O2)ccc1Cl (stereo not given) | -0.8
COc1cc(C(=O)O)cc(Br)c1OC1CCCC1 | -0.6
O=C(CCN1C(=O)C2C3C=CC(C3)C2C1=O)NCC1CCCO1 (stereo not given) | -7.6
Fc1ccc(Cl)cc1/C=N/n1cnnc1SCc1ccccc1 | 1.8
CCc1cccc(NS(=O)(=O)c2c(C)n[nH]c2C)c1 | 0.4
O=c1c2ccccc2n(Cc2ccc(F)cc2)c(=O)n1C1CCCC1 | -0.2
CCCn1c(CCC(=O)O)ccc1-c1cccs1 | -1.0
COC(=O)c1ccc(NC(=S)Nc2ccccc2)cc1 | 0.0

Next part.
SMILES | STK33 kinase inh
O=C(CSc1nnc(Cc2ccccc2)o1)N1CCCc2ccccc21 | 0.0
Cc1oc(C(C)(C)C)cc1C(=O)Nc1ccc(C(=O)O)cc1 | -1.2
COC(=O)c1nnn(-c2nonc2N)c1CSc1ccccn1 | 1.0
Cc1ncc(CN2CCC(CO)(CCOc3ccccc3)CC2)s1 | -1.1
COc1ccc(C(=O)Nc2cccc(-c3cnc4ccccc4n3)c2)cc1 | -0.7
CCC1CCCCN1C(=O)COc1ccc(N(C)S(=O)(=O)c2ccc(C)cc2)cc1 (stereo not given) | 0.3
CC(=O)N1CCc2cc(S(=O)(=O)CCC(=O)NCc3ccc(Cl)cc3)ccc21 | -1.1
Cc1nc(SCC(=O)NC2CCCC2)[nH]c(=O)c1Cc1ccccc1 | -0.9

(more compounds)
SMILES | STK33 kinase inh
CCN(CCC(=O)Nc1cc(OC)cc(OC)c1)Cc1ccccc1 | 4.4
S=c1[nH]nc(-c2cc(-c3ccco3)[nH]n2)n1-c1ccccc1Cl | 0.8
Cc1ccc(-c2ccc(CCC(=O)O)n2Cc2ccco2)cc1 | -0.6
COc1cc(/C=N/NC(=O)c2c(-c3ccccc3)noc2C)cc(OC)c1OC | -2.3
CC(/C=C/c1ccccc1F)=N\NC(=O)c1ccccc1 | 0.8
CCCn1c(SCC(=O)NC2CCC(C)CC2)n[nH]c1=O (stereo not given) | -0.6
CC(C)(C)SCCNC(=O)CN1C(=O)c2cccc3cccc1c23 | -1.2
C/C(=N\NS(=O)(=O)c1ccc([N+](=O)[O-])cc1)c1ccc(NC(=O)c2ccco2)cc1 | 9.8

The list continues:
SMILES | STK33 kinase inh
Cn1c(CNC(=O)c2ccccc2)nnc1SCC(=O)N1CCN(c2ccccc2)CC1 | -1.0
O=C(O)CSc1nnc(-c2cc3ccccc3o2)n1-c1ccccc1 | 0.2
COc1nc(-c2ccccc2)ccc1-c1noc(C)n1 | 1.0
Cc1cc(C)c2c(N=CN(C)C)c(C(=O)N3CCN(c4ncccn4)CC3)sc2n1 | -0.1
O=C(/C=C/NCc1cccnc1)c1ccc(-c2ccccc2)cc1 | -0.1
CC(C)c1ccc(NC(=O)c2cc3c(=O)n(C)c4ccccc4c3n2C)cc1 | -0.3
O=C(NCc1ccc(F)cc1)c1cc2c(s1)CCCC2 | -1.4
Cn1c(=NCC(O)COc2ccccc2)sc2ccccc21 (stereo not given) | -0.6

(listing goes on)
SMILES | STK33 kinase inh
CCN(CC)S(=O)(=O)c1ccc(OCC(=O)NC(=O)Cc2ccccc2)c([N+](=O)[O-])c1 | -0.6
COc1ccc2o/c(=N/NC(=O)c3cccs3)c(C(N)=O)cc2c1 | 0.0
Cc1ccc2nsnc2c1S(=O)(=O)N(CCO)Cc1cc2cc3c(cc2[nH]c1=O)OCCO3 | 0.2
CCn1c(C)nc2cc(C(=O)NNC(=O)Nc3ccc(Cl)cc3)ccc21 | -0.4
COc1ccc(NC(=O)C/C(C)=N/NC(=O)C(=O)NC2CCCCC2)c(OC)c1 | -0.2
COc1cccc(C(=O)NC(=S)N2c3ccccc3CC2C)c1OC (stereo not given) | -0.2
CCOC(=O)N1CCN(Cc2nc3c(c(=O)n(C)c(=O)n3C)n2CCC(C)C)CC1 | -1.7
CCN(CC)CCn1c2c(c(SCC(=O)Nc3ccc(C(C)C)cc3)nc1=O)CCCC2 | -0.5

Pulled by compound from the list above:
SMILES | STK33 kinase inh
Cc1ccc2nsnc2c1S(=O)(=O)N(CCO)Cc1cc2cc3c(cc2[nH]c1=O)OCCO3 | 0.2
COc1cccc(C(=O)NC(=S)N2c3ccccc3CC2C)c1OC (stereo not given) | -0.2

(more compounds)
SMILES | STK33 kinase inh
O=S(=O)(c1ccccc1)N1CCN=C1SCc1cccc(Cl)c1 | -0.5
CCN(CC)S(=O)(=O)c1cccc(NC(=O)CNc2cccc(S(=O)(=O)N3CCOCC3)c2)c1 | 0.2
O=C(NCc1ccccn1)C(=O)NCC1OCCN1S(=O)(=O)c1ccc([N+](=O)[O-])cc1 (stereo not given) | -0.9
COC(=O)NCC(c1cccnc1)N1CCN(c2ccccc2F)CC1 (stereo not given) | 0.9
CCC(C(=O)O)N1C(=O)/C(=C/c2cccn2C)SC1=S (stereo not given) | -0.3

Taken from above:
STK33 kinase inh result of `CC(NC(=O)c1ccco1)C(=O)Nc1nccs1` (stereo not given) is entered as -0.1
STK33 kinase inh result of `COc1ccc(C(=O)Nc2cccc(-c3cnc4ccccc4n3)c2)cc1` is entered as -0.7
STK33 kinase inh result of `CCOc1ccccc1C(=O)Nc1cnn(Cc2ccc(F)cc2)c1` is entered as 21.8

A portion of the library; most or all hits stand in other tables.
